# B2AR ag: agonists of human beta-2 adrenergic receptor inducing internalization. P07550. 340,000 tested, 0.43% active. response, % (no concentration beside the values). Am2.2-beta2AR cells, FAP receptor internalization, flow cytometry; reference of the scale not given here;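 active = response above a set limit, near 3 SD of response in nonfluorescent compounds, cut at about 42% in these data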;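 note: stock transfer was 100 nL into about 11 µL; a reference agonist was the positive control; negative values mostly stem from fluorescent compounds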
# Target sequence (P07550 whole entry, looked up): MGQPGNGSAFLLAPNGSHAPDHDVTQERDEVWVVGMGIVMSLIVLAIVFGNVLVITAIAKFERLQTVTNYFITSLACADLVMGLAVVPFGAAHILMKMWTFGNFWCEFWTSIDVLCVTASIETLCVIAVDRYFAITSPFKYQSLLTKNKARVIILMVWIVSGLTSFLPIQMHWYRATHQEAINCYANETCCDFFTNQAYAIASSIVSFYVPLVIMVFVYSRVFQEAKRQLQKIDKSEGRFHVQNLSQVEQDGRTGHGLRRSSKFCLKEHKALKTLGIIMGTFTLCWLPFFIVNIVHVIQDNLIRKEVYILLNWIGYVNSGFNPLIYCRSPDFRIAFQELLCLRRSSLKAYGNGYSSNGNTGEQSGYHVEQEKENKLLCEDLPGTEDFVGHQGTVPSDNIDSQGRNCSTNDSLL
# FGF22 binding: FGF22 (human) thermal shift binding. 340,000 tested, 1.5% active. calls only at 9.99 µM. Q9HCT0. recombinant FGF22 thermal shift, SYPRO orange fluorescence; percent of sucrose octasulfate shift, DMSO zero;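 active = melting point raised past a set limit in the mean and every replicate; inconclusive = no clear call; three in four hits are not shown here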
# Target sequence (Q9HCT0 whole entry, looked up): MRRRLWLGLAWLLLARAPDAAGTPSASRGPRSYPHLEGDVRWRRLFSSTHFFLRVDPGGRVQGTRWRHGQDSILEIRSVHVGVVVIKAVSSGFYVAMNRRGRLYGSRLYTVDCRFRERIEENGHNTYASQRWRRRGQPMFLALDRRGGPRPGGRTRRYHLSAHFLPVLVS
# E coli growth: E. coli growth inhibition | Escherichia coli growth, OD600, 23 h; active compounds read low | OD600 absorbance (test concentration not listed) | 330,000 tested, 0.21% active | AID 1053175;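 active = OD600 absorbance below the run mean of sample wells minus 3.6 SD, in any replicate, cut at about 0.56 in these data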;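 note: stock transfer was 300 nL into about 60 µL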
# ALR inh: blocks human ALR sulfhydryl oxidase activity; purified ALR, DTT oxidation, H2O2 HRP-luminol luminescence; 290,000 tested, 3.8% active; P55789; inhibition, % (no concentration beside the values);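 active = mean and each replicate at 75% or more; inconclusive = only one of the two met; inactive = neither met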;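 note: stock transfer was 7.5 nL into about 7.5 µL; 0% = neutral wells and 100% = wells with inactivated enzyme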
# UCH37 DUB inh: blocks the human deubiquitinase UCH37 | purified proteasome/UCH37, Ub-AMC cleavage fluorescence | inhibition, % (no concentration beside the values) | 330,000 tested, 0.33% active | AID 588478;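 active = mean of two replicates above 20%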;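 note: 0% = compound-free wells with enzyme and 100% = wells lacking proteasome; stock transfer was 100 nL into about 20 µL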
# Target sequence (Q9Y5K5 whole entry, looked up): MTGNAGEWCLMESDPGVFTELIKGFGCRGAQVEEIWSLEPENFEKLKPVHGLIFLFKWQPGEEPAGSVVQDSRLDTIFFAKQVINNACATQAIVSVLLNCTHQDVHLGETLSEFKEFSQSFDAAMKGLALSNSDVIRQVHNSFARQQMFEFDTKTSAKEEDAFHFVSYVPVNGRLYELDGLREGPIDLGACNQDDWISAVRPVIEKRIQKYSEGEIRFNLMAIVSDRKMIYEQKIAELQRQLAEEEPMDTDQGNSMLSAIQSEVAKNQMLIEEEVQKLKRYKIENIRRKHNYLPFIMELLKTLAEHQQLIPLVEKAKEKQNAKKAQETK
#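 Material: Human UCH37 enzyme supplied as purified proteasome complex | Schedule: 30 min compound-proteasome preincubation then 25 min substrate reaction, room temperature | Detection: AMC fluorescence from Ub-AMC cleavage, excitation 355 nm, emission 460 nm | Benchmarks: Wells without proteasome as full block, compound-free enzyme plus substrate as uninhibited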
# HNF4A DNA FP: change in binding of human HNF4 alpha to DNA; P41235; HNF4a-FITC DNA binding, fluorescence polarization, 1 h; activity change, % at 10 µM; 360,000 tested, 0.3% active; in the data active = activity change above about 30%, passing the limit was not always enough;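 note: controls were the assay level and a saturating level of protein; the project sought stronger binding though the title names inhibitors; some compounds called inactive have numbers as strong as hits; positive values seem to mean higher polarization but the record does not say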
# LANA-H2B inh: blocks KSHV LANA binding to histone H2A/H2B; cell-free LANA-H2A/H2B peptide, fluorescence polarization; inhibition, % (no concentration beside the values); 320,000 tested, 0.6% active; in the data active = inhibition mostly above about 10%, no sharp cut-off; inactive = mostly below about 6.7%;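 note: stock transfer was 7.5 nL into about 10 µL; 0% = median of vehicle wells and 100% = median of positive control wells; one replicate is shown; the record names a cut of 25% in any replicate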
# The depositor's hits bear a star; i = inactive; ? = inconclusive; · = not tested or not shown; + = active, no number. A portion of the library (hit frequency here may not be typical).
SMILES,B2AR ag,FGF22 binding,E coli growth,ALR inh,UCH37 DUB inh,HNF4A DNA FP,LANA-H2B inh
CNC(=O)c1c(NC(=O)CCS(=O)(=O)c2ccc(C)cc2)sc(C)c1C,0,i,0.69,·,2.0,-4.1,·
COc1ccc(/C=N/n2nnnc2N)c(OC)c1,-1,i,·,-19,·,3.4,0.8
CCN1CCN(S(=O)(=O)c2ccc(OC)c(Br)c2)CC1,-4,·,0.64,-4,2.2,-3.0,2.5
Cc1cccc(C(=O)NC(=S)NNC(=O)COc2ccc(Cl)cc2)c1,8,i,0.73,·,3.2,-0.3,·
Nc1nonc1-n1nnc(C(=O)N/N=C/c2ccccc2Cl)c1-c1ccc2c(c1)OCO2,3,i,·,-1,·,-0.2,7.2
CCOc1ccc(NC(=O)C2C3C=CC4(O3)C2C(=O)N(Cc2cccnc2)C4C(=O)NC2CCCCC2)cc1 (stereo unspecified),-6,·,0.69,0,0.5,-3.1,5.4
C#CCn1c(S(=O)(=O)Cc2ccc(F)cc2)nc(-c2ccccc2)c1-c1ccccc1,-6,·,0.78,-6,2.5,-0.5,2.1
CC1C(=O)Nc2ccccc2N1C(=O)c1ccc(Cl)cc1 (stereo unspecified),-1,i,0.67,-7,0.8,0.4,0.7
COc1ccc(-c2csc(NC3OC(=O)c4ccccc43)n2)cc1 (stereo unspecified),9,i,0.67,22,-1.0,-1.3,1.3
CCOc1ccc(-c2c(C)n([O-])c3c([n+]2=O)CCCC3)cc1,-10,·,0.76,-5,1.7,0.2,0.0
CCCCN(CC(=O)NCCOC)C(=O)Cn1nnc2ccccc21,-3,i,0.7,·,-0.7,-2.6,-3.0
CC(=O)Nc1ccc(/C(C)=N/NC(=O)c2ccccc2Cl)cc1,6,·,·,2,·,1.6,2.8
COc1ccc2c(c1)CCN=C2Cc1ccc(OC)c(OC)c1,-14,·,0.68,-49,-39,0.5,-1.8
Cc1c(NC(=O)CSCc2ccco2)c(=O)n(-c2ccccc2)n1C,-9,i,0.66,0,7.0,1.0,3.4
CCN(CC)C(=O)COC(=O)C1CCN(S(=O)(=O)c2ccc3c(c2)OCCO3)CC1,3,i,0.67,-1,2.4,1.0,-3.0
CC12CCC(C(=O)NNC(=O)c3ccc(Br)cc3)(OC1=O)C2(C)C (stereo unspecified),8,i,0.66,0,-0.1,-3.2,-0.1
CCCc1c(C)[nH]c2ccccc2c1=O,-12,·,0.63,-9,4.6,-8.7,-3.2
COC(=O)C(C)Sc1snnc1-c1ccccc1 (stereo unspecified),-3,·,0.65,-5,0.1,-2.2,1.4
CS(=O)(=O)c1ccc2nc(NC(=O)CN3CCOCC3)sc2c1,-5,i,0.67,·,-0.2,4.2,-5.1
CCSC(=O)N1c2ccc(OC)cc2C=CC1C#N (stereo unspecified),16,i,·,·,·,-4.8,·
Brc1ccc(Oc2nnnn2-c2ccccc2)cc1,1,i,0.72,9,6.7,3.1,0.7
N#C/C(=N\Nc1ccc(S(=O)(=O)N2CCOCC2)cc1)C(N)=S,-2,i,·,?,·,5.3,0.1
O=[N+]([O-])c1cc(Cl)ccc1-c1nc(-c2ccncc2)no1,-26,i,0.68,-24,3.9,2.1,-0.5
COc1cccc(NC(=O)/C=C/c2ccc(S(=O)(=O)N3CCOCC3)cc2)c1,17,i,0.62,-2,2.6,-1.4,0.2
COc1ccccc1N(C)S(=O)(=O)c1ccc(C)c(C(=O)N2CCCCCC2)c1,-4,·,0.65,·,0.2,-4.3,·
COC(=O)c1ccc(COC(=O)CNC(=O)CNC(=O)c2ccc(C)cc2)cc1,-2,i,0.72,-1,4.9,1.2,-1.9
Cc1c(-n2c(SC(C)C(=O)NC(N)=O)nc3ccccc3c2=O)c(=O)n(-c2ccccc2)n1C (stereo unspecified),-2,i,0.7,2,0.7,-0.8,-2.2
C=CCN1C(=O)/C(=C\c2cc(Br)c(OCc3ccccn3)c(OC)c2)SC1=S,8,i,0.68,·,1.6,9.3,-1.5
CC(=O)N(C)c1ccc(OCC(O)CN(c2ccccc2C)S(=O)(=O)c2ccc(C)cc2)cc1 (stereo unspecified),-13,i,0.65,2,3.5,-1.9,-2.7
O=C(Nc1cnn(Cc2ccc(Cl)cc2)c1)c1ccc([N+](=O)[O-])cc1,1,·,0.69,-6,3.9,-5.0,-2.0
O=C(O)CCc1nc(-c2ccccc2Cl)no1,4,·,0.66,-1,3.0,0.6,-8.8
CC(O)c1cccc(NC(=O)CCC(=O)O)c1 (stereo unspecified),-2,i,0.7,0,4.3,4.8,3.1
COCCCNC(=O)Cn1cc2c(n1)CCCCC2,10,i,0.74,-16,3.2,-1.1,-1.6
Cc1oc2nc(SCC(=O)N3CCCCC3)nc(N)c2c1C,-10,·,0.71,2,4.6,2.8,-2.0
Cc1nnc(SCc2cc(=O)[nH]c(N3CCCCC3)n2)s1,-7,·,0.66,-10,2.0,-1.2,-1.5
CCOC(=O)N1CCC(NC2CCCCCCC2)CC1,2,·,0.69,-9,0.2,-1.0,-3.2
CCCc1cc2c(cc1NC(=O)c1ccccc1F)OCO2,-2,·,0.71,·,1.7,1.0,·
CC(C)(CCC(=S)N1CCOCC1)c1ccccc1,-1,i,0.67,·,2.4,-2.6,·
Cn1c(=O)c2[nH]c(N3CCN(c4ccccn4)CC3)nc2n(C)c1=O,·,·,0.71,·,-0.2,·,0.4
Cc1[nH]c2ccc(C(=O)NCCN3CCOCC3)cc2c1C,2,i,0.74,7,2.8,2.0,-0.4
Cc1ccc(CNn2cn[nH]c2=S)cc1,-6,i,0.64,31,2.5,-2.6,4.5
C[C@@H](NC(=O)/C(C#N)=C/c1ccc(O)c(O)c1)c1ccccc1,12,i,·,99*,1.6,0.0,2.1
CC(=O)c1ccc(NC(=O)CSc2nnc(C3CC3)n2C2CC2)cc1,-2,i,0.61,-2,0.0,-0.8,-1.5
CC1(C)C=Cc2cc(-c3coc4cc(O)cc(O)c4c3=O)cc(O)c2O1,-4,i,0.79,12,3.9,3.5,-0.1
CCCCCCCCCCCCCCCC(=O)NCCO,-7,i,0.71,-11,5.7,-3.5,-5.2
Cc1ccc(C(C)C)c(OCC(O)CNC2CCCC2)c1 (stereo unspecified),7,i,0.64,-15,0.9,-1.0,2.6
NC(=O)c1ncn([C@@H]2O[C@H](CNCc3ccc(OCC(=O)Nc4ccccn4)cc3)[C@@H](O)[C@H]2O)n1,-2,i,·,·,·,0.0,·
O=C(CN1C(=O)C2CCCCC2C1=O)Nc1nc(-c2ccccn2)cs1 (stereo unspecified),2,·,0.66,-9,1.8,-6.4,-11
O=C(NCc1ccco1)Nc1cccs1,-10,·,0.71,?,-1.3,1.7,2.6
O=C(N/N=C/c1ccncc1)c1ccccc1[N+](=O)[O-],0,i,·,0,·,0.0,2.7
C=CCNC(=O)CN1CCC(n2c(C)nc3cc(C(F)(F)F)ccc32)CC1,6,·,0.7,-2,1.5,-1.0,3.3
CC(=O)Oc1ccc2c(c1)OC(c1ccccc1)CC21CC(C)(C)NC(=S)N1 (stereo unspecified),2,·,0.69,0,1.8,-2.4,1.2
O=C(N/N=C/c1c[nH]c2ccccc12)c1cccc(O)c1,2,+,·,24,·,-5.2,-2.6
CC1CN(S(=O)(=O)c2cccc(C(F)(F)F)c2)C(C)N1C(=O)N1CCOCC1 (stereo unspecified),-2,i,0.68,·,1.6,-1.5,2.6
CC(=O)Nc1ccc(-c2cn3ccsc3n2)cc1,5,·,0.66,67,4.2,0.7,15*
O=C(CSc1nc2ccccc2o1)N1CCN(c2ccccc2)CC1,1,·,0.68,-1,-0.1,1.2,2.4
CCOc1cc(C2Nc3ccccc3C(=O)N2c2ccccc2)ccc1O (stereo unspecified),-11,·,0.66,15,-139,-4.1,-3.0
CC(=O)c1sc(N/N=C\c2c(O)ccc3ccccc23)nc1C,-95,i,·,-15,·,83*,-4.6
Cc1ccc(C)c(OCCC(=O)OCC(=O)NC(=O)NC2CCCC2)c1,-4,i,0.68,-4,1.8,1.2,2.7
O=C(O)c1ccc(Nc2nc(-c3ccccc3)nc3ccccc23)cc1,7,i,0.63,-2,-43,2.1,-2.3

# The listing continues.
SMILES,B2AR ag,FGF22 binding,E coli growth,ALR inh,UCH37 DUB inh,HNF4A DNA FP,LANA-H2B inh
O=C(N/C(=C\c1ccc(F)cc1)C(=O)N1CCCCCC1)c1ccccc1,1,i,0.64,40,1.2,-1.8,-3.1
CCC(C)OC(=O)C1=C(C)NC2=C(C(=O)C(C(=O)OC)C(C)C2)C1c1ccc(N(C)C)cc1 (stereo unspecified),0,·,0.66,·,3.9,2.0,-1.4
CC(C)C(Sc1nc(-c2ccccc2)cc(-c2ccccc2)c1C#N)C(=O)O (stereo unspecified),0,·,0.73,9,1.7,-1.9,5.8
C[C@H](CO)N1C[C@H](C)[C@@H](CN(C)S(=O)(=O)c2cn(C)cn2)Oc2c(NS(=O)(=O)c3cn(C)cn3)cccc2C1=O,4,i,0.72,·,7.7,2.0,·
CCCCN(C(=O)CCN1C(=O)C2CC=CCC2C1=O)c1c(N)n(CCCC)c(=O)[nH]c1=O (stereo unspecified),-1,i,0.67,·,3.3,0.5,·
CC(=O)Nc1ccc(S(=O)(=O)Nc2cccn(Cc3ccc(C)cc3)c2=O)cc1,-2,i,0.66,5,5.4,1.7,0.5
CC(C)[C@H](NC(=O)NCCc1ccccc1)C(=O)O,-6,·,0.76,-8,-2.7,3.0,0.6
Cc1cc(=O)oc2cc(OCC(=O)N/N=C/c3cc([N+](=O)[O-])ccc3O)ccc12,0,·,·,-5,·,-52,+
Cc1cc(C)nc(NNC2=CC(=[N+]3CCCC3)CCC2)n1,-1,i,0.69,47,6.9,-0.6,-6.3
CCOC(=O)C1(CCOC)CCN(C(=O)Cc2ccc3ccccc3c2)CC1,2,i,0.72,0,0.9,-3.3,1.8
C=CCOc1ccccc1NC(=O)CN1C(=O)CNC1=O,-1,i,0.7,·,0.6,5.0,-4.3
COCCNC(=S)N1CCC(C(=O)c2ccc(C)cc2)CC1,1,i,0.61,-10,2.5,0.4,4.0
C=CCSc1ncccc1C(=O)NCc1ccccc1,1,i,0.64,·,2.2,-8.1,·
CC(CN1CCOCC1)C(=O)c1ccccc1 (stereo unspecified),-9,·,0.69,-3,-0.7,2.6,4.5
CC(C)C(=O)Nc1cccc(C(=O)Nc2nnc(C(C)(C)C)s2)c1,-11,·,0.67,8,1.2,-2.2,3.8
CCOC(=O)NC(=O)COC(=O)CCCc1nc2ccccc2s1,10,i,0.68,-11,2.3,3.0,-8.9
O=C(NCc1ccco1)/C(=C\C=C\c1ccccc1)NC(=O)c1ccco1,-9,i,0.73,5,13,1.8,0.5
NS(=O)(=O)c1ccc(CCNC(=O)C2CCC(CNS(=O)(=O)c3ccc(Br)s3)CC2)cc1 (stereo unspecified),-5,i,0.66,-4,4.2,4.8,1.3
Cc1ccc(-n2nnnc2SCC(=O)c2cc(C)n(-c3cc(C)on3)c2C)cc1,0,·,0.71,3,3.1,1.3,-1.3
CCOC(=O)c1ccc(NC(=O)COc2ccccc2CNC2CCCC2)cc1,-3,i,0.65,-4,-0.3,4.4,-4.7
COCCNC(=O)c1ccc(Cn2c(SCC(=O)NCC3CCCO3)nc3ccc(Br)cc3c2=O)cc1 (stereo unspecified),-5,i,0.71,2,4.0,1.0,12

# Entries of single compounds, looked up by structure:
# O=C(NCc1ccco1)/C(=C\C=C\c1ccccc1)NC(=O)c1ccco1 across the screens: B2AR ag: -9; FGF22 binding: i; E coli growth: 0.73; ALR inh: 5; UCH37 DUB inh: 13; HNF4A DNA FP: 1.8; LANA-H2B inh: 0.5
# CCOC(=O)c1ccc(NC(=O)COc2ccccc2CNC2CCCC2)cc1 across the screens: B2AR ag: -3; FGF22 binding: i; E coli growth: 0.65; ALR inh: -4; UCH37 DUB inh: -0.3; HNF4A DNA FP: 4.4; LANA-H2B inh: -4.7

# Source: PubChem (several laboratories)
